Screens as filed in PubChem.
B2AR ag = activates human beta-2 adrenergic receptor causing internalization | Am2.2-beta2AR cells, FAP receptor internalization, flow cytometry; reference of the scale not given here | response, % (no concentration beside the values) | 340,000 compounds, 0.43% hits | AID 504454;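 active means response above a set limit, near 3 SD of response in nonfluorescent compounds, cut at about 42% in these data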;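 further: stock transfer was 100 nL into about 11 µL; a reference agonist was the positive control; negative values mostly stem from fluorescent compounds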
ALR H2O2 inh = inhibitors of human sulfhydryl oxidase ALR | P55789 | inhibition, % (test concentration not listed) | purified ALR, DTT oxidation, H2O2 HRP-luminol luminescence | 290,000 compounds, 3.8% hits | AID 485317;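 active means mean and each replicate at 75% or more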;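 further: stock transfer was 7.5 nL into about 7.5 µL; 0% = neutral wells and 100% = wells with inactivated enzyme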
Target sequence (P55789 whole entry, looked up): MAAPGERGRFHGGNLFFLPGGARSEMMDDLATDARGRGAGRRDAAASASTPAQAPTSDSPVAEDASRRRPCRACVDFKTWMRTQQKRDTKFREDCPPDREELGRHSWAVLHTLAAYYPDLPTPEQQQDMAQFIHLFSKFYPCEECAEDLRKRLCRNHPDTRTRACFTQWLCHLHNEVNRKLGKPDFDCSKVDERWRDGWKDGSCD
rRNA inh HTS = inhibitors of bacterial rRNA selective over humanized ribosomes. GFP signal change (wild-type ribosome), % (concentration not given with the values). 350,000 compounds, 1.6% hits. E. coli WT GFP vs humanized-ribosome RFP mutants, fluorescence, 24 h; active compounds read low; DMSO median 0, no signal -100;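 active means significant combined selectivity score with lowered wild-type GFP, culture density cut under 30%, mutant RFP and density less affected; inactive means any of these conditions unmet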; further: one replicate is shown; some compounds called inactive have numbers as strong as hits
FGF22 binding = FGF22 (human) thermal shift binding. 340,000 compounds, 1.5% hits. calls only at 9.99 µM. Q9HCT0. AID 651658. recombinant FGF22 thermal shift, SYPRO orange fluorescence; percent of sucrose octasulfate shift, DMSO zero;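 active means melting point raised past a set limit in the mean and every replicate; three in four hits are not shown here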
HNF4A DNA FP = change in binding of human HNF4 alpha to DNA; activity change, % at 10 µM; P41235; AID 1224865; 360,000 compounds, 0.3% hits; HNF4a-FITC DNA binding, fluorescence polarization, 1 h; in the data active means activity change above about 30%, passing the limit was not always enough;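 further: controls were the assay level and a saturating level of protein; the project sought stronger binding though the title names inhibitors; some compounds called inactive have numbers as strong as hits; positive values seem to mean higher polarization but the record does not say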
Target sequence (P41235 whole entry, looked up): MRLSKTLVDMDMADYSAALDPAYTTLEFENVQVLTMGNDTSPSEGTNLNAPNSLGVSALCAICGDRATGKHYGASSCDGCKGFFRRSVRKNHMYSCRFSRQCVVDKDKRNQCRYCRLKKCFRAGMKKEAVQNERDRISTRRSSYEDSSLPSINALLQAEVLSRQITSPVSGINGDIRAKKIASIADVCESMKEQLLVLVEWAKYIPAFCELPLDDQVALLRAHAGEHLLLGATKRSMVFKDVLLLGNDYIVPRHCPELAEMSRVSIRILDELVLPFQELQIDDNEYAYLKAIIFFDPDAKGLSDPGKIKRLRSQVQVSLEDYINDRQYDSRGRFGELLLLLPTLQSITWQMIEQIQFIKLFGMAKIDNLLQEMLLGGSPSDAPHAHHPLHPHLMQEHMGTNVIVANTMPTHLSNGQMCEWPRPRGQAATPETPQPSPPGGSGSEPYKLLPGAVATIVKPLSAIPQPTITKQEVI
UCH37 inh = inhibitors of human deubiquitinating enzyme UCH37; Q9Y5K5; purified proteasome/UCH37, Ub-AMC cleavage fluorescence; inhibition, % (test concentration not listed); 330,000 compounds, 0.33% hits;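 active means mean of two replicates above 20%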;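 further: 0% = compound-free wells with enzyme and 100% = wells lacking proteasome; stock transfer was 100 nL into about 20 µL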
Target sequence (Q9Y5K5 whole entry, looked up): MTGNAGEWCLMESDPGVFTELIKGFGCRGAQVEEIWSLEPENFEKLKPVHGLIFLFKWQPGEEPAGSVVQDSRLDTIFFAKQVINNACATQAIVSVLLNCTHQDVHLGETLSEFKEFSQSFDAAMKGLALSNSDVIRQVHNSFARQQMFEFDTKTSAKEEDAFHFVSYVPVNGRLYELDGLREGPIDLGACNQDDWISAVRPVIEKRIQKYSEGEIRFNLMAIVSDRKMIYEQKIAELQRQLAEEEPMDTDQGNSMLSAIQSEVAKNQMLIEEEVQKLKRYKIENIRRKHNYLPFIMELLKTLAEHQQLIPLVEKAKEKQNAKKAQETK
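Material: Human UCH37 enzyme supplied as purified proteasome complex | Schedule: 30 min preincubation with enzyme, 25 min cleavage at room temperature | Detection: AMC fluorescence 355/460 nm | Measure: % inhibition of Ub-AMC cleavage fluorescence | Controls: Wells without proteasome as full block, compound-free enzyme plus substrate as uninhibited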
Ecoli growth = inhibitors of Escherichia coli growth; 330,000 compounds, 0.21% hits; OD600 absorbance (test concentration not listed); OD600, 23 h; active compounds read low;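 active means OD600 absorbance below the run mean of sample wells minus 3.6 SD, in any replicate, cut at about 0.56 in these data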;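 further: stock transfer was 300 nL into about 60 µL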
rRNA inh HTS OD600 = second read-out of rRNA inh HTS, no call of its own (marks repeat the call); OD600 change, %; measured here: OD600 growth;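 optical density of the mix in the first replicate; 0 = DMSO median and -100 = no signal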
rRNA inh HTS RFP = further read-out of rRNA inh HTS, marked with its call; RFP signal change, %; measured here: RFP humanized mutant strains;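 first replicate; 0 = DMSO median and -100 = no signal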
Numbers without * were called inactive; i = inactive; · = no result given; & = joins results of further samples. A portion of the library; count on the stated rates, not on these rows.

B2AR ag	ALR H2O2 inh	rRNA inh HTS	rRNA inh HTS OD600	rRNA inh HTS RFP	FGF22 binding	HNF4A DNA FP	UCH37 inh	Ecoli growth	structure
-7	3	-1	-3	-0.4	i	2.9	1.0	0.78	O=C1C2CC=CCC2C(=O)N1Cc1nnc(-c2ccccc2Br)o1 (stereo unspecified)
4	6	8	15	7.9	i	1.4	-2.1	0.68	CCCCOc1ccc(C(=O)NCC(=O)NC2CCN(Cc3ccccc3)CC2)cc1
23	98*	·	·	·	·	5.5	7.8	0.65	CCCS(=O)(=O)c1nnnn1-c1cccc(OC)c1
0	19	·	·	·	·	-0.3	4.9	0.66	COc1ccccc1C(=O)NCC(=O)OC(C)C(=O)NC(=O)NC1CCCCC1 (stereo unspecified)
8	-14	·	·	·	·	0.1	7.6	0.65	OCCN1CCN(C2Cc3cc(Cl)ccc3Sc3ccc(Cl)cc32)CC1 (stereo unspecified) (tested in a mixture with another compound)
-5	·	16	1	0.1	i	-2.3	5.2	0.67	CC(C)CCOc1ccccc1C(N)=O
-2	-2	6	10	1.8	i	1.0	0.9	0.62	COc1ccc(CC(=O)N(C)CC(=O)Nc2c(C)cccc2C)cc1S(=O)(=O)N1CCOCC1
-3	-4	-22*	-1.4*	1.0*	i	-1.0	0.4	0.69	Cc1ccc(OCC(=O)Nn2c(C)nc3ccccc3c2=O)c(C(C)C)c1
-11	·	-63	-81	-23	i	-1.4	6.8	0.66	Clc1ccc(C[n+]2cc(-c3ccccc3)n3c2CCCCC3)c(Cl)c1
-6	3	-14	-47	0.4	i	2.4	-3.3	0.73	CCC1(c2ccccc2)NC(=O)N(CC(=O)Nc2ccccc2N2CCCCC2)C1=O (stereo unspecified)
-3	4	12	8	-2.2	i	1.3	1.0	0.69	CC(C)Oc1ccc(CCC(=O)NNC(=S)NCc2ccccc2)cc1
1	-4	-4	-9	4.4	·	0.4	1.0	0.66	O=C(Cn1nnc(-c2ccccc2)n1)c1ccccc1
1	1	2	6	0.0	i	0.7	2.2	0.68	Cc1ccc(CN(CC(=O)NC2CCCC2)C(=O)c2csnn2)cc1
14	14	5	9	0.0	i	-1.0	-61	0.67	CN(C)c1ccc(-c2nc3ccccc3c(=O)[nH]2)cc1
6	-44	·	·	·	·	-0.9	·	·	C/C(Cn1cnc([N+](=O)[O-])n1)=N\NC(=O)c1ccccc1
7	·	-16	-13	1.9	i	-1.9	3.1	0.68	CC1CCc2[nH]c3ccc(C(=O)NCC4CCCO4)cc3c2C1 (stereo unspecified)

The list goes on; the last 6 above are carried over.
B2AR ag	ALR H2O2 inh	rRNA inh HTS	rRNA inh HTS OD600	rRNA inh HTS RFP	FGF22 binding	HNF4A DNA FP	UCH37 inh	Ecoli growth	structure
-3	4	12	8	-2.2	i	1.3	1.0	0.69	CC(C)Oc1ccc(CCC(=O)NNC(=S)NCc2ccccc2)cc1
1	-4	-4	-9	4.4	·	0.4	1.0	0.66	O=C(Cn1nnc(-c2ccccc2)n1)c1ccccc1
1	1	2	6	0.0	i	0.7	2.2	0.68	Cc1ccc(CN(CC(=O)NC2CCCC2)C(=O)c2csnn2)cc1
14	14	5	9	0.0	i	-1.0	-61	0.67	CN(C)c1ccc(-c2nc3ccccc3c(=O)[nH]2)cc1
6	-44	·	·	·	·	-0.9	·	·	C/C(Cn1cnc([N+](=O)[O-])n1)=N\NC(=O)c1ccccc1
7	·	-16	-13	1.9	i	-1.9	3.1	0.68	CC1CCc2[nH]c3ccc(C(=O)NCC4CCCO4)cc3c2C1 (stereo unspecified)
-10	-16	5	6	-2.9	i	-3.9	-0.4	0.67	Cn1c(CCNC(=O)c2ccco2)nc2ccccc21
5	1	-1	-4	-2.1	i	-6.4	11	0.66	CCN1C(C(=O)Nc2cc(C)on2)=C(O)c2ccccc2S1(=O)=O
2	6	8	8	2.7	i	6.9	1.5	0.68	CN(CCCN1CCOCC1)C(=O)c1ccc2nc(Cc3cccc(Cl)c3)oc2c1
0	-2	11	6	0.7	i	1.8	0.6	0.65	COc1ccc(CN2CCN(C(=O)c3ccc(-c4ccccc4)cc3)CC2)c(OC)c1OC
4	-3	-5	-11	-1.8	i	2.9	1.7	0.69	COc1ccc(C)cc1NS(=O)(=O)c1ccc2c(c1)N(C(C)=O)CCO2
-4	·	·	·	·	·	2.8	1.6	0.71	Cc1ccc2nc(SCC(=O)Nc3ccc4c(c3)CCC4)[nH]c2c1
·	-1	·	·	·	·	·	0.2	0.74	CC1CN(C(=O)c2ccncc2)CC(C)O1 (stereo unspecified)
-14	·	7	7	1.0	i	-1.2	·	·	Nc1nc(=S)c2ncn(C3OC(CO)CC3O)c2[nH]1 (stereo unspecified)
-5	-6	·	·	·	·	0.7	1.2	0.71	Cc1ccc(NC(=O)NC(=O)CSc2nnc(-c3ccc(OC(F)F)cc3)n2N)c(C)c1
3	-1	6	7	-0.3	i	-0.3	0.0	0.67	Cc1nc(NC(=O)c2cnccn2)ccc1Br
-3	-13	·	·	·	·	-6.3	27*	0.66	Cc1ccc(SCc2cc(=O)[nH]c(N3CCN(C)CC3)n2)cc1
34	·	·	·	·	·	2.0	7.9	0.69	Cc1c([N+](=O)[O-])ccc(S(=O)(=O)N2CCC(C(N)=O)CC2)c1C
-5	·	-2	-2	2.6	i	3.0	1.1	0.72	N#Cc1ccc(C(=O)OCc2cccc(S(=O)(=O)N3CCOCC3)c2)cc1
·	·	1	-1	-0.9	i	-1.4	·	·	CN(C(=O)COC(=O)c1c[nH]c2ccccc12)c1ccccc1
4	10	1	-3	-0.7	i	-0.6	1.1	0.71	CC(=O)NNC(=O)N1Cc2ccccc2Oc2ccc(Cl)cc21
10	1	·	·	·	·	-0.1	4.7	0.68	CNC(=O)c1[nH]cnc1C(=O)Nc1ccccc1OC
2	-5	12	5	0.5	i	0.1	-0.7	0.67	COCCNC(=O)C(NC(=O)C1CCC(C)CC1)C(C)C (stereo unspecified)
1	-1	·	·	·	·	-0.7	-0.6	0.64	CC1CCC(NC(=O)c2ccc(CS(=O)(=O)Cc3ccccc3F)o2)CC1 (stereo unspecified)
-25	1	·	·	·	·	-2.0	-8.1	0.73	Nc1c(C(=O)NC2CCCC2)c2nc3ccccc3nc2n1N
3	11	·	·	·	·	-1.0	3.6	0.67	COCCNC(=O)COc1ccc(C)c(C)c1
-6	-3	-1	-7	-1.6	i	5.2	-4.3	0.63	CCCCn1c(N)c(N(CC)C(=O)c2cc3c(s2)CCCCC3)c(=O)[nH]c1=O
-3	·	10	10	-0.2	i	4.9	-5.1	0.7	CC(C)N(C(=O)[C@H]1C[C@H](CC(=O)NCCCn2ccnc2)C(=O)N2CCc3c([nH]c4cc(-c5ccco5)ccc34)[C@]12C)C(C)C
0	0	-11	-1	0.8	i	-2.5	-4.3	·	COC(=O)c1sccc1NC(=O)/C=C/c1ccc(Cl)cc1
-1	8	-8	-13	0.1	i	-8.4	0.1	0.65	CN(CC(=O)Nc1cccc(F)c1)C(=O)c1ccc(OCc2cn3ccccc3n2)cc1
5	-6	12	10	4.8	i	1.6	0.1	0.63	Cc1ccccc1N1C(S)=C(C#N)C(=O)NC1c1ccco1 (stereo unspecified)
15	50	·	·	·	·	2.9	8.6	0.69	O=C(/C=C/NCc1ccc(F)cc1)c1ccccc1
-5	·	·	·	·	i	0.4	3.2	0.68	CC(=O)Nc1ccc(CCCCc2ccc(NC(C)=O)cc2)cc1
1	-1	2	-2	-1.2	i	1.2	5.4	0.71	CC(NC(=O)COc1ccc(S(=O)(=O)N2CCCC2)cc1)c1ccccc1 (stereo unspecified)
-1	-3	-17	-36	-4.7	i	5.2	-3.7	0.7	CC(C)(C)c1ccc(OCC(=O)Nc2cccc(S(=O)(=O)NC3=NCCCCC3)c2)cc1
18	-129	-6	28	-11	i	4.2	-3.5	0.65	CN(C)c1ccc(C2Nc3cccc4cccc(c34)N2)cc1
·	·	-2&-9	6&-14	2.5&-2.7	i	-2.6	·	·	COc1cccc(NC(=O)N(C)C[C@@H]2Oc3cc(Br)ccc3S(=O)(=O)N([C@@H](C)CO)C[C@H]2C)c1
12	98*	·	·	·	·	-2.1	·	·	Clc1ccc(N/N=C/c2ccncc2)cc1Cl
16	4	-6	-17	-6.3	i	-0.4	7.5	0.69	O=C(NNc1c([N+](=O)[O-])cc(C(F)(F)F)cc1[N+](=O)[O-])c1ccco1
-4	-8	-19	-28	3.5	i	5.8	5.0	0.75	O=C(Cn1cc2c(n1)CCCC2)Nc1cc(-c2cccc(Cl)c2)no1
-4	·	3	5	-1.8	i	-2.2	1.2	0.7	CC(C)CC1NC(=O)N(CC(=O)NC2CCCCC2)C1=O (stereo unspecified)
13	2	1	2	0.7	i	-0.5	·	·	O=C(N/N=C/c1cc([N+](=O)[O-])c(N2CCOCC2)cc1N1CCOCC1)c1cccnc1
·	·	5	10	-0.2	i	1.5	·	·	COc1ccc(CN2C[C@@H](CO)O[C@@H](n3cnc4c(NCc5ccncc5)ncnc43)C2)cc1
8	-1	8	5	4.4	i	-1.4	2.8	0.68	Cn1c(=NC(=O)c2ccccc2[N+](=O)[O-])sc2cccc(F)c21
-7	45	·	·	·	·	2.8	1.2	0.69	CC(=O)N1c2ccccc2Nc2ccccc21
-1	3	3	2	-2.3	i	2.3	3.3	0.68	O=C(NNC(=O)c1ccc(S(=O)(=O)N2CCOCC2)cc1)c1ccccc1
3	98*	-5	-5	-4.4	i	1.8	3.2	0.7	COc1cc([N+](=O)[O-])ccc1-c1ccc(C(=O)Nc2ccc(NC(C)=O)cc2)o1
3	-1	·	·	·	·	-2.5	-0.5	0.69	OC1CC(c2ccco2)NC2(CCCCC2)C1 (stereo unspecified)
6	·	14	11	1.8	i	2.5	·	·	Cc1ccc(S(=O)(=O)c2ccsc2NC(=O)c2ccccc2)cc1
28	19	-24	-39	9.1	i	-3.4	-2.3	0.7	COC(=O)N1CCc2c(sc(NC(=O)C3COc4ccccc4O3)c2C(N)=O)C1 (stereo unspecified)
0	1	2	6	-2.3	i	-0.5	-0.1	0.71	O=C(c1cccc(S(=O)(=O)N2CCc3ccccc32)c1)N1CCOCC1
8	·	·	·	·	·	-2.1	5.3	0.73	CCOC(=O)C1(CC)CC(CSc2nc3ccccc3[nH]2)OC1=O (stereo unspecified)
-10	0	5	6	0.4	i	0.9	4.1	0.66	CCc1noc(C)c1C(=O)NNC(=O)c1cc(OC)c(OC)c(OC)c1
·	·	-10	-16	5.6	i	1.5	·	·	Cc1ccc(Cc2c(-c3ccc(C)cc3)nc3ccc(Cl)cn23)cc1
1	-15	-17	-21	0.3	i	-2.3	3.0	0.69	O=C(c1ccc(Cl)c(S(=O)(=O)N2CCCC2)c1)N1CCN(c2ccccc2F)CC1
-1	-2	0	1	-0.6	i	2.2	0.6	0.71	O=C(O)Cc1cn(-c2ccccc2)nc1-c1ccccc1
·	·	5	17	2.4	i	0.8	·	·	COCCNc1nc(Oc2ccc(CC(=O)OC)cc2)c2sc(-c3ccccc3)cc2n1
-3	-7	0	-11	0.6	i	-2.3	2.4	0.71	COc1ccccc1NC(=O)c1ccc2nc(C)c(C)nc2c1
-1	1	-1	-5	0.8	i	1.7	3.4	0.69	Cc1ccc(S(=O)(=O)N2CCOC23CCN(C(=O)C(=O)NCc2ccccc2)CC3)cc1
-9	-5	·	·	·	·	-2.3	·	·	CCCC/C(C)=N/NC(=O)NC1CCCCC1
